From PubChem
AmpC inh no det: Promiscuous and Specific Inhibitors of AmpC Beta-Lactamase (assay without detergent); P00811; AmpC nitrocefin hydrolysis, absorbance 480 nm, no detergent; potencies from a single point are estimates; Potency, µM (series often up to 28.7 µM), inactives show at the top dose activity change, negative = inhibition; 1.8% of 71,000 active; active = falling curve, for most hits resting on a single point; inconclusive = weak or doubtful change; inactive = flat or rising curve; further: % of control where 0% means no effect; about half of the hits show no inhibition at the top dose; a quarter of the inactives give rising signals
Target sequence (P00811 whole entry, looked up): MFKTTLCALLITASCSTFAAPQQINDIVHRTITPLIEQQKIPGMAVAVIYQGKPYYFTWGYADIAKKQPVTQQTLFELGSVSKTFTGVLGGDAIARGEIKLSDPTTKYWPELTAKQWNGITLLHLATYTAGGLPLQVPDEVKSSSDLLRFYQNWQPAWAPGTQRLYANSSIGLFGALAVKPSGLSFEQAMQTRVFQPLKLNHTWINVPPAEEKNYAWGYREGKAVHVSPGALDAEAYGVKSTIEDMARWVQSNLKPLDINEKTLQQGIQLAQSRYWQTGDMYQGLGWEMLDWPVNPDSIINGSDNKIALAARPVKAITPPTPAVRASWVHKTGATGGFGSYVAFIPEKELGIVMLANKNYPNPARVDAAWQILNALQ
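AmpC in 20 mM phosphate buffer pH 7.0 was preincubated 15 min at room temperature with compounds. Nitrocefin (800 uM stock) was then added and hydrolysis followed at 480 nm every 20 s for 4 min.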
Active calls of the source: *; ? = inconclusive; [ ] = remark or other dose. Potency means the concentration at half of the fitted maximal effect. This is a subset, so the mix of outcomes need not match the whole.

Molecule	AmpC inh no det
CC(=O)N(CN1C(=O)c2ccccc2C1=O)c1ccccc1	-8%
COc1cccc(C2=NOC(C(=O)NC(C)C)C2)c1 (centres undefined)	15%
FC(F)(F)c1nc2nncn2c2c1CCCCC2	-12%
N#CCCn1nc(-c2ccccc2)cc1-n1c(C(F)(F)F)nc2ccccc21	61%
O=C(CNS(=O)(=O)c1ccc(Br)s1)NCC1COc2ccccc2O1 (centres undefined)	0%
CCOC(=O)N1CCC(NC(=O)C(NC(=O)C2CCCCC2)C(C)C)CC1 (centres undefined)	12%
CCCCc1nc2ccccc2c(NC(=O)CN2CCN(C)CC2)c1CCC	23%
CC(C)NC(=O)c1ccccc1-c1nc(-c2ccccc2Cl)no1	9%
CCOC(=O)c1ccc(NC(=O)CSc2nc3c(c(=O)n2C)SC(C)C3)cc1 (centres undefined)	44%
Cc1cc(C)c2nc3c(c([C@H](O)[C@@H]4CCCCN4)c2c1)CC/C3=C/c1ccc(Cl)cc1	-4%[5.75 µM]
CCOc1ccccc1NC(=O)N1CCCC1C(=O)Nc1ccc(-n2cnnn2)c(C)c1 (centres undefined)	28%
Cc1cc(C)n(S(=O)(=O)c2ccc(C)c(C)c2C)n1	11%
CC(C)C(=O)N1CCN(C2=NS(=O)(=O)c3ccccc32)CC1	-4%
CC1CCCN(S(=O)(=O)c2ccc3c(c2)CCN3C(=O)C2CCC2)C1 (centres undefined)	14%
CC(=O)C1=C(O)C(=O)N(CCN(C)C)C1c1ccc(Cl)cc1 (centres undefined)	-2%
Cc1nc2ccccc2c2oc(C(=O)Nc3ccc4c(c3)OCCO4)cc12	-1%
COc1cccc2sc(Nc3nc(C)c(C(C)=O)s3)nc12	150%
Cc1ccc(NS(=O)(=O)c2cc(C(=O)N3CCOCC3)ccc2C)cc1	19%
COC(=O)NCC(c1cccnc1)N1CCN(c2ccccc2)CC1 (centres undefined)	60%
Cn1cnc(S(=O)(=O)N2CCc3ccccc32)c1	-6%
COc1ccc(C(=O)NC2=C(C#N)CCC2)cc1OC	24%
O=C(c1ccco1)N(CC1CCCO1)c1nc(-c2ccccc2)cs1 (centres undefined)	28%
CC(C)C[C@@H](CC(=O)N[C@@H](CCC(=O)O)CC(=O)O)NC(=O)[C@@H]1CCCC[C@H]1NC(=O)C[C@H](CCCN)NC(=O)C[C@H](Cc1ccccc1)NC(=O)[C@@H]1CNCC[C@H]1N	140%
Cc1cc(C)cc(Nc2ncc3c(n2)CCCC3=O)c1	4%
Cc1nc2sc3c(c2c(=O)o1)CCCC3	0%
COc1cc(NS(=O)(=O)c2ccc(N)cc2)nc(OC)n1	-11%[12.8 µM]
O=C1C2CCCN2C(c2cccc(F)c2)N1c1cccc(Cl)c1 (centres undefined)	37%
Cc1ccc(SCCNS(C)(=O)=O)cc1	3%
NS(=O)(=O)c1cc(C(=O)O)cc(N2CCCC2)c1Oc1ccccc1	-9%[12.8 µM]
CS(=O)(=O)N1Cc2ccccc2CC1C(=O)Nc1ccccc1C(N)=O (centres undefined)	-9%
CN(C)/C=N/c1sc2c(c1C#N)CCC2	6%
CCOc1ccc(C(=O)Nc2ccc(S(=O)(=O)N3CCOCC3)cc2)cc1OCC	80%
CCC(=O)N[C@@H]1Cc2ccccc2[C@@H](c2ccccc2)C1	102%
O=c1c2c(n3nnnc3n1Cc1ccccc1)-c1ccccc1CC21CCCC1	-13%
CCN1c2nc3ccccn3c(=O)c2CC2(C(=O)N(C)C(=O)N(C)C2=O)C1C (centres undefined)	6%
CN(C)Cc1c(O)ccc2occ(C(=O)c3ccccc3)c12	11%
COc1cc([C@H]2[C@@H]3CCCC[C@]3(O)CCN2Cc2ccccc2F)ccc1O	66%
COC(=O)C(C)Sc1nnc(Cc2cc(=O)[nH]c(=O)[nH]2)n1-c1cccc(OC)c1 (centres undefined)	4µM*[single pt active]
COC(=O)N1CCC2(CC1)CN(c1ccccc1)C2	31%
Cc1[nH]c(=O)[nH]c(=O)c1S(=O)(=O)N1CCN(c2cccc(Cl)c2)CC1	-4%
CC(=O)c1ccccc1OCCCN1CCCCC1	-6%
CCN(CC)C(=O)C(C)OC(=O)COc1ccc(Cl)cc1C (centres undefined)	65%
CCOC(=O)c1ccc(N2C(=O)C3C(C2=O)C(C(=O)c2ccc(Cl)cc2)N2CCCC32)cc1 (centres undefined)	46%
CCSc1nc2c([nH]c3ccccc32)c(=O)n1C	14%
O=C(CN1c2cccc3cccc(c23)S1(=O)=O)N1CCOCC1	-16%
CCOC(=O)N1CCN(C(=O)c2ccc3nc(C)sc3c2)CC1	2%
COc1ccc(C2C(C(=O)N3CCOCC3)CCC(=O)N2c2ccc(OC)cc2)cc1 (centres undefined)	20%
Cc1ccc(-n2c(C)nc3oc4ccccc4c(=O)c3c2=O)cc1	?
O=C(c1cccs1)N1CCn2c1nc1ccccc12	7%
COc1cc(OC)c(-c2nc3cnccc3n2C)cc1OC	1%

(further entries)
Molecule	AmpC inh no det
COc1ccc(CN2C(=O)[C@@H]3C(c4ccc(F)cc4)=NO[C@@H]3C2=O)cc1	-20%
NC(N)=NC(=O)c1nc(Cl)c(N2CCCCCC2)nc1N	0%
Cc1cc(-c2nn3c(-c4ccccc4)nnc3s2)c2ccccc2n1	18%
CSc1nnnc2ccccc12	-3%[5.75 µM]
O=C(C1CCCCC1)N1CCC(c2nc3ccccc3[nH]2)CC1	14%
CC(C)c1ccc(NS(=O)(=O)c2cn(C)c(=O)n(C)c2=O)cc1	23%
Cc1cnc(CNc2ccnc(-c3ccoc3)n2)cn1	9%
Cc1nn(C)cc1CNC(=O)C1C2CCC(O2)C1C(=O)O (centres undefined)	-20%
O=C(NCc1ccccc1)N1CCn2c(nc3ccccc32)C1	-3%
NCCC[C@@H](CC(=O)N[C@@H]1CCNC[C@H]1C(=O)N[C@H](CC(=O)N[C@@H](CCC(=O)O)CC(=O)O)Cc1ccccc1)NC(=O)C[C@H](Cc1ccccc1)NC(=O)[C@@H]1CCCC[C@H]1N	143%
COc1ccccc1NC(=O)COc1ccc(CO)cc1Cl	84%
CCOC(=O)CSC1=C(C#N)C(c2ccc(Cl)cc2)C(C(=O)OC)C(=O)N1 (centres undefined)	13%
CN(C(=O)NC(=O)C1=C(N2CCOCC2)/C(=C/c2ccccc2)CC1)S(C)(=O)=O	124%
Cc1ccc(S(=O)(=O)Cc2ccc(C(=O)NCCCN3CCCC3=O)o2)cc1	24%
COC(=O)c1cc2nc(-c3ccc(OC)cc3)cc(C(F)(F)F)n2n1	-8%
CNc1sc(C(=O)c2cccs2)c(N)c1-c1nc2ccccc2s1	13µM*[single pt active]
COc1ccc(CC(=O)Nc2ccc(-c3nnc(-c4ccccc4)o3)cc2)cc1	9%
O=C(CN1CCN(c2ncccn2)CC1)NCCC1=CCCCC1	67%
Cc1cc(C)nc(NS(=O)(=O)c2ccc(NC(=O)NC3CCCCC3)cc2)n1	-10%
COc1cccc2c(C)nc(Nc3nc(CSc4nnc(C)s4)cc(=O)[nH]3)nc12	89%
O=C(Oc1ccccc1)N1CCC2(CC1)CN(c1ccncc1)C2	1%
O=C(NC1CC2CCCC(C1)N2C(=O)Nc1ccccc1)c1ccncc1 (centres undefined)	-4%
COc1cc(CN2CCC(C(=O)N3CCN(c4ccccc4F)CC3)CC2)cc(OC)c1OC	53%
CCS(=O)(=O)N1CCCC(C(=O)NCCCOC(C)C)C1 (centres undefined)	1%
CCOC(=O)c1cc2sc(C)cc2n1CC(=O)NCCc1ccccc1	55%

3 compounds already listed, sorted by formula weight, high to low.
Molecule	AmpC inh no det
CCOC(=O)CSC1=C(C#N)C(c2ccc(Cl)cc2)C(C(=O)OC)C(=O)N1 (centres undefined)	13%
COc1ccccc1NC(=O)COc1ccc(CO)cc1Cl	84%
CSc1nnnc2ccccc12	-3%[5.75 µM]

Remaining list, next part
Molecule	AmpC inh no det
COC(=O)C1CCN(C(c2cccs2)c2sc3nc(C)nn3c2O)CC1 (centres undefined)	-13%
CC(=O)c1nccs1	0%
COC(=O)c1[nH]c(C)c(/C(O)=C2\C(=O)C(=O)N(CCN(C)C)C2c2ccccc2OC)c1C (centres undefined)	5%
O=C1CC(c2nc3ccccc3[nH]2)CN1c1ccccc1 (centres undefined)	-2%
CCCCn1cc(C(C)(C)C)c(C#N)c1NC(C)=O	20%
Nc1ccn([C@H]2CC[C@H](CO)O2)c(=O)n1	4%
N#CC(C#N)=CNCCN1CCN(C=C(C#N)C#N)CC1	8%[5.75 µM]
CCC[C@@](C)(COC(N)=O)COC(=O)NC(C)C	2%[12.8 µM]
Nc1cc(=O)[nH]n1C1CCN(c2ccccc2)CC1	7%
CCOc1cc(S(=O)(=O)Nc2ccc(Cl)cn2)ccc1F	-9%
COc1cc2nc(C3CC3)n(NC(=O)c3ccc(F)cc3)c(=O)c2cc1OC	13%
CCOc1ccc(C(=O)NCCCn2ccnc2)cc1	0%
CC(=O)OC(C(=O)NCCc1ccccc1)c1cccnc1 (centres undefined)	-2%
CC(=O)Oc1cccc(N2C(=O)CC(Nc3ccc(N4CCOCC4)cc3)C2=O)c1 (centres undefined)	4%
O=C(CCCCCC(=O)N(CCO)CCO)N(CCO)CCO	9%
O=c1c[n+]([O-])c2ccccc2n1OCc1ccccn1	-6%
COc1ccc(NC(=O)c2ccc3c(c2)C(=O)N(Cc2cccnc2)C3=O)cc1	-6%
CN(C)CCCSC(=N)N	-6%
CC(C)=CCC/C(C)=C/CCC(C)NCCN1CCNCC1 (centres undefined)	20%
Oc1ccc(N=Cc2ccc(-c3cccs3)s2)cc1	-11%
O=C(Nc1cc(C(=O)N2CCCC2)ccc1N1CCCC1)c1ccccc1F	26%
O=C(O)CCc1ccc(-c2ccc(F)cc2)n1CCC(=O)O	3%
COc1ccc(Cl)cc1NC(=O)N1CCN(CCc2ccccc2)CC1	78%
Fc1ccc(C(c2nnnn2C2CCCC2)N2CCN(Cc3ccccc3)CC2)cc1 (centres undefined)	72%
COC(=O)c1ccccc1NC(=O)C1CCCC1	6%
COC(=O)c1cccc(Cn2nnc3ccccc3c2=O)c1	-2%
O=C(N1CCCCCC1)N1CCN(S(=O)(=O)N2CCCCC2)CC1	14%
Cc1c(C)c2cc(Cl)c(O)c(CN(C)C)c2oc1=O	-1%
CCOC(=O)C1=C(N)Oc2cc(C)n(CCc3ccc(OC)c(OC)c3)c(=O)c2C1c1cccnc1 (centres undefined)	100%
CCOC(=O)N1CCC(NC(=O)c2cc3c(-c4ccc(Cl)cc4)nn(C)c3s2)CC1	4µM*[single pt active]
CN1CCN(C(=O)c2ccccc2-c2nc(-c3ccc(Cl)cc3)no2)CC1	115%
CCOc1cc(S(=O)(=O)NC2CC(C)(C)NC(C)(C)C2)ccc1F	0%
CC1(C)CC(=O)CC(C)(C)N1OC(=O)c1ccncc1	0%
Cc1cc(C(c2nnnn2Cc2ccccc2)N2CCOCC2)c(C)n1-c1ccc2c(c1)OCO2 (centres undefined)	105%
O=C(NCC1CCCO1)c1ccccc1-c1nc(-c2ccccc2)no1 (centres undefined)	25%
C[Se]C[C@@H](N)C(=O)O	-4%
Cn1ncc(C#N)c1/N=C/N1CCOCC1	-3%
CCOC(=O)N1CCN(C(=O)CSc2nnc(COc3ccc(Cl)cc3)o2)CC1	96%
CCOC(=O)c1ccccc1NC(=O)COc1ccccc1	6%
CC1(C)Cc2nc3oc4c(N(CCO)Cc5ccccc5)ncnc4c3cc2CO1	112%
N=Cc1c(O)n(-c2cccc(Cl)c2)c(=O)[nH]c1=O	-3%
CC1CCCCN1CCNC(=O)c1cnn2ccccc12 (centres undefined)	3.2µM*[single pt active]
COc1ccc(CNc2ncnc3ccc(-c4ccccc4C#N)cc23)c(OC)c1	59%
O=C(O)CCNCC(=O)O	-5%[5.75 µM]
CN(C)C(=O)Oc1ccc(C(=O)c2ccccc2)cc1	9%
O=C(CSc1nnc(-c2cccs2)o1)N1CCc2ccccc21	3%

Filtered by structure: those above containing fluorine.
Molecule	AmpC inh no det
FC(F)(F)c1nc2nncn2c2c1CCCCC2	-12%
N#CCCn1nc(-c2ccccc2)cc1-n1c(C(F)(F)F)nc2ccccc21	61%
O=C1C2CCCN2C(c2cccc(F)c2)N1c1cccc(Cl)c1 (centres undefined)	37%
COc1cc([C@H]2[C@@H]3CCCC[C@]3(O)CCN2Cc2ccccc2F)ccc1O	66%
COc1ccc(CN2C(=O)[C@@H]3C(c4ccc(F)cc4)=NO[C@@H]3C2=O)cc1	-20%
COC(=O)c1cc2nc(-c3ccc(OC)cc3)cc(C(F)(F)F)n2n1	-8%
COc1cc(CN2CCC(C(=O)N3CCN(c4ccccc4F)CC3)CC2)cc(OC)c1OC	53%
CCOc1cc(S(=O)(=O)Nc2ccc(Cl)cn2)ccc1F	-9%
COc1cc2nc(C3CC3)n(NC(=O)c3ccc(F)cc3)c(=O)c2cc1OC	13%
O=C(Nc1cc(C(=O)N2CCCC2)ccc1N1CCCC1)c1ccccc1F	26%
O=C(O)CCc1ccc(-c2ccc(F)cc2)n1CCC(=O)O	3%
Fc1ccc(C(c2nnnn2C2CCCC2)N2CCN(Cc3ccccc3)CC2)cc1 (centres undefined)	72%
CCOc1cc(S(=O)(=O)NC2CC(C)(C)NC(C)(C)C2)ccc1F	0%
